# Source: PubChem
# Biofilm kill mix: clotrimazole potentiators killing C. albicans biofilm, primary screen, 4-compound mixtures. C. albicans biofilm persisters + clotrimazole, fluorescence viability; primary screen in compound mixtures of four per well. inhibition, % at 7.6 µM. 120,000 tested, 0.02% active. AID 1242, 2008;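 active = inhibition above 30.3% in the primary screen of four-compound pools, then above 30% when the compound was retested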;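 also: compounds exposed to preformed 24 h biofilms for 48 h; the number belongs to the whole pool; some results filed as inactive read as strong as hits; inactives centre near 12; 0% = biofilm with clotrimazole alone and 100% = kill control; retested singly at about 60 µM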
#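 Probe or stimulus – Clotrimazole 50 µg/mL co-treatment · System – C. albicans biofilms · Schedule – 24 h biofilm formation, then 48 h compound exposure, 37 °C · Evaluation – percent inhibition of biofilm viability · Technique – 2-h Alamar Blue fluorescence, 535/590 nm excitation/emission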
# The depositor's hits bear a star. Only part of the results is shown; the hit share may differ from the screen's.
SMILES,Biofilm kill mix
O=C(CSC1=NCCS1)N1CCN(c2ccccc2)CC1,12.0
O=C(NCc1cccnc1)C(=O)NCC(c1ccco1)N1CCN(c2ccccc2F)CC1 (centres undefined),14.4
CC(C)C(NC(=O)c1ccccc1)C(=O)OCc1cc([N+](=O)[O-])cc2c1OCOC2 (centres undefined),8.9
Cc1cc(C(=O)NCc2cccs2)ccc1[N+](=O)[O-],19.0
CSc1oc(-c2ccc(F)cc2)nc1S(=O)(=O)c1ccccc1,7.5
COc1cc(/C=C(/C#N)C(=O)Nc2ccc(C)cc2)ccc1Oc1nc(Cl)ncc1F,11.7
CN(C)c1nc(NCc2ccccc2)nc(N/N=C/c2ccc(Br)cc2)n1,9.3
O=C(O)c1ccc(N/N=C/c2ccc3nccnc3c2)cc1,16.3
CCOC(=O)C1CCN(Cc2c(O)c3ccccc3oc2=O)CC1,4.0
Cc1cscc1NC(=O)/C=C/C(=O)O,-0.7
CCOc1cc2c(cc1/C=C(/C#N)c1ccc(C(=O)O)cc1)OCO2,19.7
CS(=O)(=O)N1CCC(C(=O)NCc2ccc3c(c2)OCO3)CC1,6.8
O=C(N/N=C1/CC2C=CCC12)c1ccc(Br)o1 (centres undefined),-6.5
O=C(Nc1ccc(Br)c(C(F)(F)F)c1)c1ccc(C(F)(F)F)cc1,9.0
OC(CCN1CCCCC1)(c1ccccc1)C1CCCCC1 (centres undefined),16.0
O=C(NCC(=O)N(CC1CCCO1)C(C(=O)NC1CCCCC1)c1ccccc1)c1ccco1 (centres undefined),23.4
Cc1ccc(C)c(NS(=O)(=O)c2ccc3[nH]c(=O)[nH]c3c2)c1,14.0
N#CCCC(CCC#N)C1=NCCc2ccccc21,16.6
CCOC(=O)/C(C)=C1\NC(C)(C)Cc2ccccc21,-21.6
Cc1cc(N)n(-c2ccc(Oc3ccccc3)c(S(=O)(=O)O)c2)n1,-2.1
Cc1ccc(-n2cccc2/C=C2\C(=N)N3N=C(C(C)C)SC3=NC2=O)cc1,17.2
O=C(CCCN1C(=O)/C(=C/c2cccs2)SC1=S)NNC(=O)c1cccnc1,1.8
NC(=O)c1cc2ccccc2o/c1=N\NC(=O)c1ccco1,13.8
COc1ccc(N(CC(=O)N/N=C/c2ccc3c(c2)OCO3)S(=O)(=O)c2ccc(NC(C)=O)cc2)cc1,-4.2
O=c1cc(N2CCCC2)[nH]c(=O)n1-c1ccc(Cl)cc1,13.8
Cc1ccc(CSCCNC(=O)CN(c2cc(C)ccc2C)S(C)(=O)=O)cc1,8.2
O=C(N/N=C/c1cc(Br)ccc1O)c1cccc(N2CCCC2=O)c1,6.5
COc1cccc(/C=C/C(=O)OCC(=O)NCc2ccco2)c1OC,8.6
O=C(CN1CCCCC1)Nc1scc2c1c(=O)oc1ccccc12,13.4
CCN(CC)S(=O)(=O)c1cccc(C(=O)NC(C)C(c2cccs2)N2CCCC2)c1 (centres undefined),8.4
O=C(c1ccc2c3c(cccc13)CC2)C1CCCN(Cc2ccncc2)C1 (centres undefined),5.5
O=C1CCCC1C(=O)Nc1ccc2ccccc2c1 (centres undefined),20.0
CCCN1CCN(CCCNC(=S)Nc2ccc3nc(N4CCN(CC)CC4)cc(C)c3c2)CC1,13.7
Cc1sc2nc(-c3cccnc3)[nH]c(=O)c2c1-c1ccccc1,-0.4
O=C(Cn1c2ccccc2c(=O)c2ccccc21)N/N=C/c1cc([N+](=O)[O-])ccc1N1CCCCC1,18.6
O=C(c1ccccc1-c1nc(-c2ccccc2Cl)no1)N1CCOCC1,12.7
COc1ccccc1Nc1ccc([N+](=O)[O-])cc1N,13.6
Cc1cccc2c1N(CCOc1ccc(C(C)(C)C)cc1)C(=O)C2=O,21.3
O=C(CNC(=O)c1ccc(N2C(=O)c3ccccc3C2=O)cc1)OCC(=O)c1ccc(Cl)cc1,7.9
COc1ccc(CN(Cc2ccc(C(=O)O)cc2)C(=S)Nc2cccc(C)c2)cc1OC,12.8
CCOc1ccc(NC2=CC(=O)CC(c3ccco3)C2)cc1 (centres undefined),15.9
Clc1ccccc1CN(Cc1ccco1)Cc1nnnn1C1CCCC1,12.0
COc1ccc(S(=O)(=O)N2c3cc(Cl)ccc3Oc3nc4ccccc4nc32)cc1,10.4
CCOC(=O)C(NC(=O)c1ccccc1Cl)(Nc1sc2c(c1C(N)=O)CCC2)C(F)(F)F (centres undefined),13.7
Cc1onc(-c2c(Cl)cccc2Cl)c1C(=O)N=C(N)N1CCCC1,17.1
O=C(OCC(=O)N1CCc2ccccc2C1)c1ccc(N2CCOCC2)c([N+](=O)[O-])c1,4.9
COc1ccc(NC(=O)Nc2ccccc2SC)cc1,18.2
CCC(C)[C@H](NC(=O)[C@@H]1Cc2ccccc2CN1C(=O)OC(C)(C)C)C(=O)NCC1CCC(C(=O)O)CC1 (some centres undefined),17.2
CCC1(CC)Cc2ccccc2C2=C(C(=O)N3CCCCC3)C(=O)C(=O)N21,18.2
COc1ccc(/C=C(\NC(=O)c2ccco2)C(=O)NCCc2nc3ccccc3[nH]2)cc1,16.6
COc1cc(/C=C2/C(=O)NN(c3ccc(F)cc3)C2=O)cc([N+](=O)[O-])c1O,13.0
O=c1cc(NCc2ccccc2)nc2ccccn12,27.7
COC(=O)c1ccc(-c2ccc([C@H]3[C@H]4C=CC[C@@H](C)[C@@H]4C(=O)N3Cc3ccccc3)c(F)c2)cc1,9.6
O=C(NCCCO)c1ccc(CSc2nc3ccccc3c(=O)[nH]2)cc1,20.3
Cc1c(Br)c(-c2n[nH]c(=S)n2Cc2ccco2)nn1C,9.2
Cc1ccccc1NC(=O)CCSc1nnnn1-c1ccccc1,12.9
CCOC(=O)C(C)/C(C)=N/NC(=O)c1cc2ccccc2cc1O (centres undefined),4.6
CCOC(=O)c1ccc(N/C(=N/S(=O)(=O)c2ccccc2)c2ccccc2)cc1,8.8
Cc1ccc2nc3c(c(Nc4ccccc4)c2c1)CCC3,12.0
N#Cc1ccc2c(c1)nc1ccccn12,16.5

# In the list so far, 2 have a CF3 group.
SMILES,Biofilm kill mix
O=C(Nc1ccc(Br)c(C(F)(F)F)c1)c1ccc(C(F)(F)F)cc1,9.0
CCOC(=O)C(NC(=O)c1ccccc1Cl)(Nc1sc2c(c1C(N)=O)CCC2)C(F)(F)F (centres undefined),13.7

# More compounds follow.
SMILES,Biofilm kill mix
CCNc1nc(NC(C)C)nc(N(n2cnnc2)S(=O)(=O)c2ccc(C)cc2)n1,10.5
CC(=O)Oc1ccccc1N(C(C)=O)S(=O)(=O)c1cccc([N+](=O)[O-])c1,-1.0
N/C(=N\OC(=O)Cc1ccccc1[N+](=O)[O-])c1ccc(Br)cc1,5.8
COC(=O)c1cc(C(=O)N2CCN(c3cccc(C)c3C)CC2)cc([N+](=O)[O-])c1,12.6
CN(C)CCCN(C(=O)CCOc1ccccc1)c1nc2ccc(F)cc2s1,9.1
Cc1nc(NC(=O)C2CC2)sc1C,7.2
CC(C)COC(=O)c1ccccc1OC(=O)c1ccncc1,11.8
CSc1ccc(CN(C)C(C)C(=O)NCc2ccccc2)cc1 (centres undefined),5.5
O=C(NCc1cccc(CNC(=O)C(=O)NCC2CCCO2)c1)C(=O)NCC1CCCO1 (centres undefined),38.0
NC(=O)Nc1cc(Cl)ccc1Cl,19.4
O=C(O)c1ccc(N2C(=O)c3ccc(C(=O)c4cccc([N+](=O)[O-])c4)cc3C2=O)cc1,5.4
CCN(CC)S(=O)(=O)c1cccc(-c2csc(C)n2)c1,33.4
C/C(CCC(C)C)=N\NS(=O)(=O)c1ccc(C)c([N+](=O)[O-])c1,8.1
COc1ccc(OC2C(=O)N(c3ccc(C)c(C)c3)C2c2ccc(OC)c(OC)c2)cc1 (centres undefined),0.8
CCCCCCCCCC(=O)N1c2ccccc2NC(=O)C1CC(=O)Nc1ccc(C(=O)O)cc1 (centres undefined),21.6
CC1NC(=O)N(C)[C@@H]2NC(=O)N(C)C(c3ccc([N+](=O)[O-])cc3)[C@@H]12 (some centres undefined),10.3
COc1ccccc1-c1csc(NC(=O)c2ccc(N3C(=O)CCC3=O)cc2)n1,2.3
O=C(Nc1ccccc1C(=O)N1CCOCC1)c1ccc(Cl)cc1,-3.4
C/C(CC(=O)Nc1ccc(F)cc1)=N\NC(=O)c1ccccn1,10.4
O=C(N/N=C/c1ccc(Cl)c([N+](=O)[O-])c1)c1cnccn1,9.5
S=C(NCCc1ccccc1)N1CCc2ccccc2C1,3.7
CCOC(=O)c1c(C)nc2c(c1-c1ccc(Cl)cc1)C(=O)CC(C)(C)C2,16.1
C/C=C/c1ccc(OCCOCCOc2cccc3cccnc23)c(OC)c1,-1.9
CCCn1c(SCC(=O)c2ccc3c(c2)NC(=O)CO3)nc2ccccc21,10.6
O=C(Nc1ccccc1)N1N=C(c2ccc(F)cc2)CC1c1ccc(F)cc1 (centres undefined),3.1
CCNS(=O)(=O)c1ccc(C)c(-n2cnnn2)c1C,6.8
CC(=O)Nc1ccc(/C=C2/Sc3ccccc3C2=O)cc1,21.9
CC(C)(C)NC(=O)c1cccnc1Sc1ccccc1,8.6
CC1=C(C(=O)N(C)C)C(c2cccs2)NC(=O)N1 (centres undefined),4.4
COc1ccc2c(C(=O)CCl)c[nH]c2c1,20.9
Oc1c(Cl)cc(Cl)cc1C1=NNC(c2ccc(Cl)cc2)C1 (centres undefined),5.5
COc1ccc(-c2[nH]ncc2CN2CCN(Cc3cccs3)CC2)c(F)c1,15.8
COc1ccccc1N1CCN(/N=C/C=C\c2ccccc2[N+](=O)[O-])CC1,15.2
CC(N=C1NC(C)(C)Cc2ccccc21)C(=O)O (centres undefined),3.4
COCCNC(=S)Nc1ccc2nc(N3CCCC3)cc(C)c2c1,14.0
CCCCNCc1ccc(OCc2ccc(Cl)nc2)c(OC)c1,32.0
Cc1cc(C)nc(/N=C2\NC(=O)CC(C(=O)O)N2c2ccc(C)c(C)c2)n1 (centres undefined),18.6
CCN1CC(=O)Nc2cc(S(=O)(=O)N3CCOCC3)ccc21,3.8
O=C(Nc1ccccc1N1CCN(c2ccccc2)CC1)c1ccccc1,14.7
Nc1sc2c(c1C(=O)NCCc1ccccc1)CCC2,10.4
COc1ccc(-c2nnc(SCC(=O)NC3CCCc4ccccc43)n2N)cc1 (centres undefined),9.2
O=C(NCc1nc2ccccc2[nH]1)c1ccc(S(=O)(=O)N2CCCC2)cc1,11.6
COc1ccc(CNC(=O)CCSCc2cccc(Cl)c2)cc1,8.8
Cn1cc(S(=O)(=O)NCC2CCCO2)c(=O)n(C)c1=O (centres undefined),13.8
CCOC(=O)c1c(NC(C)=O)sc2c(OCC(O)CNC(C)(C)C)c(Br)ccc12 (centres undefined),23.6
O=C(CNCc1ccncc1)Nc1cc(S(=O)(=O)N2CCCCC2)ccc1Cl,13.7
O=C(NCCc1ccccc1)C1CCC(Cn2c(=O)c3ccccc3n(Cc3cccc(F)c3)c2=O)CC1 (centres undefined),16.9
O=[N+]([O-])c1ccc(/C=C/c2ccc3ccccc3n2)cc1,10.6
CCCCNc1nc(NC)nc(Cl)c1SC,1.8
O=C(N/N=C1\CC2CC=CC12)c1ccccc1Cl (centres undefined),1.3
Cc1ccc(OCC(=O)N2CCc3ccccc3C2)c([N+](=O)[O-])n1,24.1
CNC(=S)N1CCC(n2cnc3ccccc32)CC1,10.6
Cc1nc(NC(=O)CN2CCC(O)(c3ccc(F)cc3)CC2)sc1C,19.9
O=c1cc(-c2ccccc2Cl)oc2c([N+](=O)[O-])c(O)cc(O)c12,12.9
Cc1ccc(CN2CCN(CC(=O)N/N=C/c3ccccc3F)CC2)cc1,24.2
Cc1nc2c(O)cccc2cc1CO,5.7
C=CCNC(=S)Nc1cccc2[nH]ncc12,-2.1
Cc1cccc(N=Nc2c(C)nn(-c3ccccc3)c2N)c1C,12.9
Cc1nc2c(=O)n(-c3ccc(F)c(Cl)c3)nc(C)c2s1,4.2
Cc1cc(/C=C(\C#N)c2nnc(N3CCOCC3)n2-c2ccccc2)c(C)n1-c1ccccc1,22.7

# The results go on:
SMILES,Biofilm kill mix
CC(=O)Nc1ccc(S(=O)(=O)N2CCN(C(=O)c3ccccc3F)CC2)cc1,22.8
Cc1ccc(C23CC4CC(CC(C(=O)N5CCN(C)CC5)(C4)C2)C3)cc1,20.3
CCN(CC)S(=O)(=O)c1ccc(OC)c(NC(=O)c2ccc(=O)[nH]c2)c1,3.1
NC(=O)C1CCN(C(c2ccccc2)c2nnnn2C2CCCC2)CC1 (centres undefined),9.0
O=S(=O)([N-]c1nc2ccccc2nc1-[n+]1ccc(-c2ccncc2)cc1)c1ccccc1,8.8
O=c1c(Cl)c(NCc2ccc(F)cc2)cnn1C12CC3CC(CC(C3)C1)C2,7.6
CC(C)[C@H]1CN(C)CCN1Cc1cn(C)nc1-c1cccc(Cl)c1,6.8
CCOCC(=O)Nc1c(C(=O)Nc2ccc3c(c2)OCCO3)oc2ccccc12,9.8
CCN(N)C(=S)Nc1ccc(F)cc1,34.7
Cc1ccc(-c2ccc(SCC(=O)N3CCc4ccccc43)nn2)cc1,10.6
COc1ccc(Oc2ccc(/C=N/NC(=O)c3cccnc3)cc2[N+](=O)[O-])cc1,2.4
C/C(=N\O)C1(C)N(O)C(C)(C)C(c2ccco2)=[N+]1[O-] (centres undefined),19.1
